YopH PTP inh: YopH tyrosine phosphatase inhibitors, primary screen, biochemical, fluorescence Ex485/Em525. YopH tyrosine phosphatase [Yersinia enterocolitica]. inhibition, %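 (about 10 µM by stock and volumes)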. 0.16% of 140,000 active. AID 898, 2007;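 active means inhibition of 50% or more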;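 further: controls were vehicle for no effect and minimum signal wells for full effect; inactives centre near -20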
Mtb betalactam: beta-lactam sensitization of Mtb H37Rv, H37Rv | M. tuberculosis H37Rv growth with meropenem, percent inhibition; hits of this screen are not shown here | AID 434955, 2010 | 0.27% of 330,000 active | inhibition, % at 25 µM;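 active means about 74% or more and at least 40 points above the plate without the antibiotic, then above 30% in a dose series; inconclusive means first-round hits that could not be retested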;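 further: growth measured after seven days incubation then overnight dye step; 0% = bacteria only wells and 100% = bacteria with antibiotic; twin plates without the antibiotic show which effects depend on it; some results filed as inactive read as strong as hits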
Arbovirus anti: antivirals against arbovirus infection, primary screen, cell-based, full library, 10K replicate subset; arbovirus infection cell-based antiviral screen; inhibition, % at 10 µM; 0.37% of 200,000 active; AID 1251, 2008;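 active means inhibition from about 30%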;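 further: bluetongue infection of BSR cells; cell survival read as ATP light after 72 h; 0% = infected wells without compound and 100% = uninfected wells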
Mtb growth: M. tuberculosis H37Rv growth inhibitors, H37Rv strain (AID 1626). M. tuberculosis H37Rv growth inhibition; higher % means a stronger effect. inhibition, % at 10 µM; hits with a dose series show IC50 in µM. 0.95% of 220,000 active;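 active means confirmed in a dose series; inconclusive means inhibition above 80% but not taken into the dose series; inactive means below 80% or under 30% at every dose of the series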;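 further: bacteria incubated seven days before Alamar blue readout; 0% = bacteria only wells and 100% = bacteria with antibiotic wells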
RecA splice inh: Mtb RecA intein splicing inhibitors, primary screen, biochemical, fluorescence, HTS | 0.75% of 290,000 active | inhibition, %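 (about 9 µM by stock and volumes)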 | Protein RecA (Mycobacterium tuberculosis (strain ATCC 25618 / H37Rv)), P9WHJ3 | AID 2221, 2009 | cell-free RecA intein splicing; in the data active means inhibition above about 30%; inconclusive means no clear call, values can overlap the other calls;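 further: 0% = vehicle wells and 100% = reference inhibitor control wells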
Target sequence (P9WHJ3 whole entry, looked up, canonical isoform): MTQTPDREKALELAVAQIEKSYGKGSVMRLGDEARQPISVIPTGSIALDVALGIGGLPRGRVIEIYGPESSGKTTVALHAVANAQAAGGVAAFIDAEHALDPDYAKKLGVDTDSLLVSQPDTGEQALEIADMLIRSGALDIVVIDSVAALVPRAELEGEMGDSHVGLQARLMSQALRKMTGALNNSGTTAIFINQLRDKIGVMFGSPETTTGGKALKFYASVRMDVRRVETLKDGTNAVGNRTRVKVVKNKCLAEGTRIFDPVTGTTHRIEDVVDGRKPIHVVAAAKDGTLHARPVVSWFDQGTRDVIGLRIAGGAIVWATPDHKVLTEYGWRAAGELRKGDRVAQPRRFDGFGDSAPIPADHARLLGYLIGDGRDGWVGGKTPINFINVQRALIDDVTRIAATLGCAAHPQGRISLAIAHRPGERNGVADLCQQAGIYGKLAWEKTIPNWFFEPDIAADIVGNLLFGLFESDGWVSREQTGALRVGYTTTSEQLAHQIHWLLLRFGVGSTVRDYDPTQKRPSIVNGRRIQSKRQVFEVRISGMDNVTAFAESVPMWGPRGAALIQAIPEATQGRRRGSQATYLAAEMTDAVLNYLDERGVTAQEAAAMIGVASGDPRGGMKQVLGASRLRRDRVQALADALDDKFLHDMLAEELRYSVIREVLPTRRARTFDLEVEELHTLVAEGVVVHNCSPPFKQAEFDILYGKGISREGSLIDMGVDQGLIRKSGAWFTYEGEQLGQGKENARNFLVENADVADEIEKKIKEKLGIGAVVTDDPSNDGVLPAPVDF
Arbovirus anti repeat: also measured in Arbovirus anti; calls as there; inhibition, %; measured here: 10K subset replicate screen; many hits read low in the repeat;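 first of two repeat runs on a subset; 0% = infected and 100% = uninfected wells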
Active calls of the source: *; ? = inconclusive; / = not tested or not shown. Not all compounds are listed; count on the stated rates, not on these rows.

SMILES	YopH PTP inh	Mtb betalactam	Arbovirus anti	Mtb growth	RecA splice inh	others
COCc1cc(=O)n2c(-c3ccc(C)cc3)n[nH]c2n1	/	-1	2	0%	-0.4	Arbovirus anti repeat=0
CCn1c(N2CCC(Cc3ccccc3)CC2)nc2c1c(=O)[nH]c(=O)n2C	-24	1	-6	/	7.7
Cc1ccc(C)c(NC(=O)CN(C)C(=O)c2ccc(-n3cncn3)c([N+](=O)[O-])c2)c1	/	-3	/	/	0.3
Cc1ccc2c(c1)nnn2C1CCN(S(=O)(=O)c2ccc(C(=O)N(C)C)cc2)CC1	-33	-5	2	-1%	-1.0
COc1ccc(OC)c(NC(=O)Nc2ccc3c(c2)OCO3)c1	/	-14	/	/	9.9
Cc1ccc(S(=O)(=O)N2CCOC23CCN(C(=O)c2ccccc2Br)CC3)cc1	/	-6	/	/	3.3
O=C(O)c1sccc1SCc1ccc(Cl)cc1Cl	-28	-5	16	/	8.1
Cc1ccc(OC(=O)C(F)(F)F)c2c1NCCC2	-53	9	11	-3%	-1.2
CC1CCCCN1C(=O)Cn1cc(C=O)c2ccccc21 (configuration not stated)	-28	4	3	7%	1.1
O=C(Nc1ccc(Br)cn1)c1cccc2ccccc12	/	61	/	/	1.3
COc1ccc(NC(=O)C2CCCN2C(=O)NCc2ccccc2)cc1OC (configuration not stated)	-28	3	5	-5%	-1.5
CN(Cc1cc(-c2ccccc2)on1)C(=O)c1cc(COc2c(F)cccc2F)on1	/	-12	8	4%	8.2
CCOC(=O)CSc1nc2cc(C(F)(F)F)cnc2n1C	/	93	/	12%	1.2
COc1cc(C(=O)NCCOc2ccccc2)c(Br)c(OC)c1OC	3	6	-4	-6%	1.3
Cc1ccc(CNC(=O)[C@@H]2CCC(=O)N2Cc2ccco2)cc1	-31	-4	7	-11%	0.7
CC(C)(C)NC(=O)CN(Cc1cccs1)C(=O)CNS(=O)(=O)c1ccc(F)cc1	/	6	-3	3%	-3.0
O=C(Nc1cc(C(F)(F)F)ccc1N1CCOCC1)C1=NN(c2ccccc2)C(=O)CC1	/	?	/	/	0.2
O=C(Nc1ccc(N2CCN(C(=O)C3CC3)CC2)cc1)c1cccs1	/	-9	12	6%	-2.1
CC(C)(C)c1nc2ccc([N+](=O)[O-])cc2[nH]1	/	2	-5	-5%	0.3
CCn1c2ccccc2c2nnc(SCC(=O)c3c(N)n(C)c(=O)n(C)c3=O)nc21	/	1	2	3%	0.1
Cc1n[nH]c(C)c1CCc1nc2c3ccccc3nc(SCC(=O)Nc3ccccc3F)n2n1	-26	5	5	-3%	8.2
COc1ccc(-c2nc(-c3ccccn3)nc(N3CCN(C)CC3)c2C#N)cc1	/	15	-3	2%	1.5
CCOc1ccc(Cl)cc1S(=O)(=O)n1cnc2ccccc21	7	2	-5	7%	2.8
CCOc1ccccc1NC(=O)c1ccccc1NS(C)(=O)=O	-5	7	0	-4%	0.1
Cc1ccccc1C1c2[nH]c3ccccc3c2CCN1Cc1cccn1-c1ncccn1 (configuration not stated)	/	38	/	0%	7.5
COc1ccc(Cc2nnc(NCCO)[nH]c2=O)cc1OC	/	-4	/	/	-0.6
CC(=O)Nc1ccc(S(=O)(=O)CCC(=O)O)cc1	4	-3	1	-3%	/
CC1C(=O)Nc2ccc(S(=O)(=O)N3CCc4ccccc4C3)cc2NC1=O (configuration not stated)	/	0	/	/	1.3
Cc1ccccc1C(=O)N1CCN(S(=O)(=O)c2cccs2)CC1	/	-14	/	/	1.8
Cc1ccc(C)c(NC(=O)C(OC(=O)c2ccc(NC(=O)CC#N)cc2)c2ccccc2)c1 (configuration not stated)	/	-7	/	/	-0.6
CCN(C(=O)COC(=O)c1cccnc1SC)C1CCS(=O)(=O)C1 (configuration not stated)	-25	-6	4	-10%	2.4
CCCCc1ncc(CN2CCCC(C(=O)c3ccc(SC)cc3)C2)[nH]1 (configuration not stated)	/	0	-15	1%	1.5
Cc1ccc(C)c(NC(=O)CSc2nc3nc(-c4cccs4)cc(C(F)(F)F)c3c(=O)[nH]2)c1	/	-3	/	-15%	-5.6
O=C(/C=C(\O)c1ccccc1)C(=O)NNC(=O)c1ccccc1	/	-1	/	/	-1.7
Cc1ccc(OCCOC(=O)C2CCN(S(=O)(=O)c3ccc(C)c(C)c3)CC2)cc1	/	12	/	/	5.3
CCOc1ncccc1C(=O)OCC(=O)c1ccccc1Br	/	-10	25	-10%	-0.7
CCN(c1ccc(OC)cc1)S(=O)(=O)c1cc(-c2cc(C)no2)ccc1OC	/	-11	/	/	6.1
COC(=O)[C@@H](NC(=O)N1CCN(c2cccc(C(F)(F)F)c2)CC1)C(C)C	-31	-10	4	-3%	1.4
CC1CCCCN1CCCNC(=O)c1ccc(N2CCCC2=O)cc1 (configuration not stated)	/	-3	/	/	1.5
CC(=O)Nc1ccc(NC(=O)C(=O)c2cn(CC(=O)N3CCCCC3)c3ccccc23)cc1	/	2	-1	/	-5.8
O=C1NCCCN1Cc1ccc(F)cc1Cl	-43	/	3	-4%	-0.9
COc1ccc(-c2cnnc(N/N=C/c3ccc(-c4ccc([N+](=O)[O-])cc4)o3)n2)cc1	/	/	-23	2%	/
CC1(C)CC(=O)C(Sc2nnc(-c3ccc(O)cc3)n2CC2CCCO2)C(=O)C1 (configuration not stated)	-34	1	2	1%	2.7
COC(=O)c1ccccc1-c1ccc(C=O)o1	/	-2	-10	3%	/
Cc1cc(C)n(-c2cc(N3CCOCC3)ncn2)n1	-2	4	2	2%	1.0	Arbovirus anti repeat=-3

Arranged by length of the SMILES (high to low): part of the list above.
SMILES	YopH PTP inh	Mtb betalactam	Arbovirus anti	Mtb growth	RecA splice inh	others
Cc1ccc(C)c(NC(=O)CSc2nc3nc(-c4cccs4)cc(C(F)(F)F)c3c(=O)[nH]2)c1	/	-3	/	-15%	-5.6
COc1ccc(-c2cnnc(N/N=C/c3ccc(-c4ccc([N+](=O)[O-])cc4)o3)n2)cc1	/	/	-23	2%	/
Cc1ccc(C)c(NC(=O)C(OC(=O)c2ccc(NC(=O)CC#N)cc2)c2ccccc2)c1 (configuration not stated)	/	-7	/	/	-0.6
COC(=O)[C@@H](NC(=O)N1CCN(c2cccc(C(F)(F)F)c2)CC1)C(C)C	-31	-10	4	-3%	1.4
Cc1ccc(OCCOC(=O)C2CCN(S(=O)(=O)c3ccc(C)c(C)c3)CC2)cc1	/	12	/	/	5.3
CC1(C)CC(=O)C(Sc2nnc(-c3ccc(O)cc3)n2CC2CCCO2)C(=O)C1 (configuration not stated)	-34	1	2	1%	2.7
CCN(c1ccc(OC)cc1)S(=O)(=O)c1cc(-c2cc(C)no2)ccc1OC	/	-11	/	/	6.1
Cc1ccccc1C1c2[nH]c3ccccc3c2CCN1Cc1cccn1-c1ncccn1 (configuration not stated)	/	38	/	0%	7.5
CC1C(=O)Nc2ccc(S(=O)(=O)N3CCc4ccccc4C3)cc2NC1=O (configuration not stated)	/	0	/	/	1.3
CCCCc1ncc(CN2CCCC(C(=O)c3ccc(SC)cc3)C2)[nH]1 (configuration not stated)	/	0	-15	1%	1.5
CCN(C(=O)COC(=O)c1cccnc1SC)C1CCS(=O)(=O)C1 (configuration not stated)	-25	-6	4	-10%	2.4
O=C(/C=C(\O)c1ccccc1)C(=O)NNC(=O)c1ccccc1	/	-1	/	/	-1.7
Cc1ccccc1C(=O)N1CCN(S(=O)(=O)c2cccs2)CC1	/	-14	/	/	1.8
CCOc1ccc(Cl)cc1S(=O)(=O)n1cnc2ccccc21	7	2	-5	7%	2.8
CCOc1ccccc1NC(=O)c1ccccc1NS(C)(=O)=O	-5	7	0	-4%	0.1
CC(=O)Nc1ccc(S(=O)(=O)CCC(=O)O)cc1	4	-3	1	-3%	/
CCOc1ncccc1C(=O)OCC(=O)c1ccccc1Br	/	-10	25	-10%	-0.7
Cc1cc(C)n(-c2cc(N3CCOCC3)ncn2)n1	-2	4	2	2%	1.0	Arbovirus anti repeat=-3
COC(=O)c1ccccc1-c1ccc(C=O)o1	/	-2	-10	3%	/
O=C1NCCCN1Cc1ccc(F)cc1Cl	-43	/	3	-4%	-0.9

Reprinted from the results shown for reference:
SMILES	YopH PTP inh	Mtb betalactam	Arbovirus anti	Mtb growth	RecA splice inh	others
CC(=O)Nc1ccc(NC(=O)C(=O)c2cn(CC(=O)N3CCCCC3)c3ccccc23)cc1	/	2	-1	/	-5.8
O=C1NCCCN1Cc1ccc(F)cc1Cl	-43	/	3	-4%	-0.9

Continued.
SMILES	YopH PTP inh	Mtb betalactam	Arbovirus anti	Mtb growth	RecA splice inh	others
O=C(NC(=S)Nc1nc(-c2ccccc2)cs1)c1ccco1	/	3	2	4%	-0.5
CCOc1ccccc1N1C(=O)CC(Sc2n[nH]c(-c3ccccc3)n2)C1=O (configuration not stated)	/	-5	-4	-1%	1.0
Cc1ccc(C2=NN(CCC(=O)NCCCN3CCOCC3)C(=O)CC2)cc1	/	-8	/	/	1.1
CN(C)CCCN(C(=O)C1COc2ccccc2O1)c1nc2cc3c(cc2s1)OCO3 (configuration not stated)	/	12	/	/	-3.4
O=C(N/N=C\c1ccc(F)cc1)c1ccc(Cn2cc(Br)c([N+](=O)[O-])n2)o1	-5	97	-19	4%	1.2
CNS(=O)(=O)c1cc(OC)ccc1OC	-14	3	-3	-5%	-0.3
CCOc1cc(/C=C2\N=C(SC)SC2=O)cc([N+](=O)[O-])c1OC(C)=O	-39	5	3	/	-1.7
CC(C)CNS(=O)(=O)c1ccc(CCC(=O)N2CCN(c3ccc(F)cc3)CC2)cc1	/	0	16	8%	-1.1
Cc1occc1C(=O)NNC(=S)Nc1ccccc1C(F)(F)F	-34	0	-2	/	-3.5
N#C/C(=C\c1ccc2c(c1)OCO2)C(=O)NCc1ccco1	/	5	20	-7%	-1.8
O=C(NCc1ccccc1)C1CCN(S(=O)(=O)N2CCOCC2)CC1	-33	-6	7	-4%	0.7
COC(=O)C(/C=N/OCc1ccc([N+](=O)[O-])cc1)NC(=O)c1ccccc1 (configuration not stated)	-44	-14	7	-6%	0.6
c1ccc(C[C@H]2CNCCN2CC2(c3ccccc3)CC2)cc1	/	-7	/	/	-0.1
Cc1occc(=O)c1OC(=O)Nc1ccc(Cl)c(Cl)c1	-11	79	5	?	/
CCC(C)[C@H](NC(=O)N1CC(=O)Nc2ccccc21)C(=O)N[C@@H](Cc1c[nH]c2ccccc12)C(=O)O (some centres not stated)	/	-8	/	/	2.0
COc1cccc(-c2ccc(C#N)c(SCC(=O)NCCc3ccccc3)n2)c1	-13	8	-7	-5%	-3.5
O=C(COc1ccc2ccccc2c1)NNC(=O)c1ccccc1	/	1	/	/	0.5
CCOC(=O)N1CCC(n2c(SCC(=O)NCc3ccco3)nc3ccsc3c2=O)CC1	0	0	2	-4%	1.0
Cc1ccc(-c2nc(-c3ccncc3)no2)cc1C	/	8	/	/	2.2
CCOc1cc(S(=O)(=O)NCc2ccncc2)ccc1Cl	/	27	8	5%	-2.7
c1ccc(OCc2noc(CN3CCC(C4CCCCC4)C3)n2)cc1 (configuration not stated)	/	-4	-10	2%	5.5
COc1ccc(C(=O)N/C(=C/c2cccnc2)C(=O)NCc2ccco2)cc1OC	/	-10	/	-5%	0.0
Nc1ccc2nc(CCCCc3nc4ccccc4[nH]3)[nH]c2c1	/	2	/	/	36*
O=C1CCC2S/C(=C/Nc3ccc(C(F)(F)F)cc3)C(=O)N12 (configuration not stated)	/	2	1	7%	0.4
CN(C(=O)c1ccc(Br)o1)C1CCCCC1	/	-3	/	/	0.2
CCCCN1C(=O)NC(NC(C)=O)(C(F)(F)F)C1=O (configuration not stated)	-30	1	-4	-2%	-0.8
CCN(CC)CCCOc1nc(C)nc2c1oc1ccccc12	-16	/	-1	2%	/
O=C(c1cc(-c2ccncc2)nc2ccccc12)N1CCN(c2ccccn2)CC1	-24	-5	-15	2%	3.6
COCCNC(=O)COC(=O)CSCc1nc2ccccc2s1	-34	-17	1	-2%	0.5
Cc1cc(C)c(S(=O)(=O)N2CCN(C(=O)CN3C(=O)NC4(CCCC4)C3=O)CC2)c(C)c1	/	11	/	/	0.8
Cc1ccc(NC(=O)COC(=O)Cn2cnc3c2c(=O)n(C)c(=O)n3C)c(Cl)c1	/	5	5	-8%	-1.6

Screens from PubChem BioAssay.
